Source: PubChem (National Center for Advancing Translational Sciences (NCATS))
ClpP mod = qHTS Assay for Activators of ClpP; purified B. subtilis ClpP, FRET peptide cleavage, 20 min; Potency, µM (highest dose often 57.5 µM), for the others: at the top dose activity change, negative = active; hit rate 1.9% among 340,000; AID 651965, 2013; active = well fitted falling curve with a large enough effect; inconclusive = small, poorly fitted or top-dose-only effect; inactive = no such curve, though single readings can be large or run the other way; further: the source files actives as falling curves though it sought activators and does not explain the sign; nearly all actives have a fitted effect of over 65% in size; many hits overshoot -100%
Target sequence (P80244 whole entry, looked up): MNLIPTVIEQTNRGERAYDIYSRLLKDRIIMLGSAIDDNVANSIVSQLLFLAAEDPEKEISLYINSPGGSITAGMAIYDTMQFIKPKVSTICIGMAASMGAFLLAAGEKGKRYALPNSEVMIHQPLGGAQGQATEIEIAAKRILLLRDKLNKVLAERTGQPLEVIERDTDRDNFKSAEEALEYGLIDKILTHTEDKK
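Buffer: 100 mM Tris/HCl pH8, 100 mM KCl, 0.05% low protease BSA, 2.5% glycerol, 0.01% Tween-20. ClpP 10 microg/mL final; 20 min RT; delta FRET normalized to ADEP and DMSO controls.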
* marks the source's active call; other numbers are inactive results; ? = inconclusive. Potency means the concentration at half of the fitted maximal effect. An excerpt. The share of hits here may be higher or lower than overall.

SMILES	ClpP mod
Cc1ccccc1NC(=O)C1C(=O)Nc2ccccc2C(=O)N1Cc1ccccc1 (stereo not given)	-8.7%
CC(C)c1cn(CC[C@@H]2CC[C@@H](NC(=O)C3CCCCC3)[C@@H](CO)O2)nn1	0.9%
Cc1ccc(S(=O)(=O)N2C(c3ccccc3)CC(=O)C3CN(S(=O)(=O)c4ccc(Cl)cc4)C(c4ccccc4)CC32)cc1 (stereo not given)	-4.4%
CCOC1=C2[C@@H](CN(S(=O)(=O)c3ccccc3C)[C@H]2c2ccc(Cl)cc2)[C@H]2C(=O)N(C3CCCCC3)C(=O)[C@H]2C1	-4.2%
COc1ccc(NC(=O)C(c2ccc(C(F)(F)F)cc2)n2c(=O)c(-c3ccco3)nc3ccccc32)cc1 (stereo not given)	-9.1%
CCC(=O)Nc1ccc2c(c1)OC[C@@H](C)N(Cc1cccc(F)c1)C[C@@H](C)[C@@H](OC)CN(C)C2=O	-2.3%
COCCCN1C(=O)C(CC(=O)NCc2cccc3ccccc23)CC(C(=O)N2CCCCCC2)=C1C (stereo not given)	0.8%
Cc1ccc(S(=O)(=O)Nc2ccc(F)c(F)c2O)cc1	0.1%
CC1(C(=O)Nc2ccc3c(c2)OCCO3)CSCC(=O)N1CCOc1ccccc1 (stereo not given)	1.8%
COC(=O)C[C@@H]1CC[C@H](NC(=O)CC2CC2)[C@@H](CO)O1	-0.7%
CCCCCNC(=O)C(c1cc2ccccc2o1)n1c(=O)c(-c2ccccc2)nc2ccccc21 (stereo not given)	-8.9%
COC(=O)C[C@@H]1CC[C@H](NC(=O)Nc2cccc(F)c2)[C@@H](CO)O1	-1.5%
Cc1ccc(N2CCN(C(C(=O)Nc3c(C)cccc3C)c3ccccc3OC(F)(F)F)CC2)cc1 (stereo not given)	-4.6%
CCCCNC(=O)C(NC(=O)c1ccccc1)C(=O)c1ccccc1 (stereo not given)	0.6%
COc1ccc(NC(=O)C(c2cccc3ccccc23)n2c(=O)c(-c3ccco3)nc3ccccc32)cc1 (stereo not given)	-7.9%
Cc1ccccc1CN1C(=O)CSCC1(C)C(=O)NC(C)C (stereo not given)	0.0%
CCNC(=O)C[C@@H]1CC[C@@H]2NC[C@@H](O)COC[C@H]2O1	-2.6%
CCCCCNC(=O)C(c1cccc2ccccc12)n1c(=O)c(-c2ccccc2)nc2ccccc21 (stereo not given)	?
Cc1cccc(C)c1NC(=O)C(c1cc2ccccc2o1)N1CCC(c2ccccc2)CC1 (stereo not given)	-4.6%
CC(C(=O)NC1CCCC1)n1c(-c2ccccn2)nc2ccccc21 (stereo not given)	4.0%
CSCCC(C(=O)Nc1c(C)cccc1C)n1c(-c2cc(C)cs2)nc2ccccc21 (stereo not given)	4.3%
O=C(NCc1ccccc1)C1C(c2ccccc2)=Nc2ccccc2N1C(=O)c1cnccn1 (stereo not given)	-2.6%
Cn1cc([C@]2(O)C(=O)Nc3ccc(Br)cc32)c2ccccc21	-0.2%
CCCCCCCCN1C(=O)[C@H](CC(=O)NCCCOC)C[C@@]2(C(=O)OC)CC(C)(C)CC=C12	1.1%
CC1(C(=O)NCc2ccccc2)CN(S(C)(=O)=O)CC(=O)N1C1CC1 (stereo not given)	0.4%
COC(=O)/C=C1\OCc2c(F)cccc21	2.3%
CCCCCNC(=O)C(c1ccc(-c2ccccc2)cc1)n1c(=O)c(-c2cc3ccccc3[nH]2)nc2ccccc21 (stereo not given)	48%
COc1cccc(C2CC(OCCF)=CC(=O)O2)c1 (stereo not given)	-8.0%
COc1ccc(C(C(=O)Nc2c(C)cccc2C)N2CCN(C)CC2)cc1 (stereo not given)	0.0%
CCCNC(=O)N[C@H]1CC[C@@H](CCn2cc(-c3cccc(F)c3)nn2)O[C@@H]1CO	-1.0%
COc1ccc(OC)c(CN2C(=O)CN(S(C)(=O)=O)CC2(C)C(=O)NC(C)C)c1 (stereo not given)	-1.6%
CO[C@H]1CN(C)C(=O)c2cc(NC(=O)c3cc(C)on3)ccc2OC[C@@H](C)N(C(=O)C2CC2)C[C@H]1C	2.1%
COc1ccccc1-c1cn(CC[C@H]2CC[C@@H](NS(=O)(=O)c3ccccc3C)[C@@H](CO)O2)nn1	-1.3%
COc1ccc(-n2nnnc2C2(C)CCC(=O)N2Cc2ccccc2)cc1 (stereo not given)	-3.1%
Cc1ccc(S(=O)(=O)N2[C@H](CC(=O)Oc3ccccc3)OC[C@@H]2C(C)C)cc1	-0.8%
COC(=O)[C@]12CCCCC=C1N(Cc1ccc3c(c1)OCO3)C(=O)[C@H](CC(=O)NCc1ccccc1)C2	1.6%
c1ccc(C[C@H]2COc3c4ccccc4nn32)cc1	-2.8%
COC(=O)C[C@@H]1CC[C@H](NC(=O)Nc2ccc(OC)cc2)[C@@H](CO)O1	-0.5%
COC(=O)[C@@]12C[C@@H](CC(=O)NCc3ccc(OC)c(OC)c3)C(=O)N(Cc3cccc4ccccc34)C1=CCC(C)(C)C2	-2.9%
O=C1NC[C@H](Cc2ccccc2)N(CCc2cc(C(F)(F)F)cc(C(F)(F)F)c2)C1=O	-0.9%
CCOC(=O)N1CCN(C(=O)C[C@@H]2C[C@@]3(C(=O)OC)CCCCC=C3N(Cc3ccc4c(c3)OCO4)C2=O)CC1	0.1%
COc1ccc(C(C(=O)Nc2c(C)cccc2C)n2c(=O)c(-c3ccccc3)nc3ccccc32)cc1 (stereo not given)	?
O=C(Nc1ccc2c(c1)OCCO2)C(C1CC1)n1c(=O)c(-c2cc3ccccc3[nH]2)nc2ccccc21 (stereo not given)	15%
COC(=O)[C@]12CCCCC=C1N(CCc1ccc(OC)c(OC)c1)C(=O)[C@H](CC(=O)NCCc1ccccc1OC)C2	-3.5%
CCCCCNC(=O)C(CCc1ccccc1)n1c(=O)c(-c2cc3ccccc3[nH]2)nc2ccccc21 (stereo not given)	33%
COC(=O)[C@@]12C[C@@H](CC(=O)NCCCN3CCCC3=O)C(=O)N(Cc3cccc4ccccc34)C1=CCC(C)(C)C2	1.3%
COc1cccc(C(C(=O)NCc2ccccc2)N2CCN(c3ccccc3F)CC2)c1OC (stereo not given)	-0.1%
CO[C@@H]1CN(C)C(=O)c2cc(NC(=O)NC3CCCCC3)ccc2OC[C@@H](C)N(CCc2ccccc2)C[C@@H]1C	-1.7%
CCCCNC(=O)C(NC(=O)c1cnc(C)cn1)C(=O)c1ccccc1 (stereo not given)	-1.0%
COC(=O)[C@@]12C[C@@H](CC(=O)N3CCN(C(=O)c4ccco4)CC3)C(=O)N(Cc3cccc4ccccc34)C1=CCC(C)(C)C2	-1.1%

2 entries drawn at random from those above, as already listed:
SMILES	ClpP mod
O=C1NC[C@H](Cc2ccccc2)N(CCc2cc(C(F)(F)F)cc(C(F)(F)F)c2)C1=O	-0.9%
CCCCCNC(=O)C(c1cccc2ccccc12)n1c(=O)c(-c2ccccc2)nc2ccccc21 (stereo not given)	?

Reformatted as comma-separated lines: 7 of the compounds above.
Molecule,ClpP mod
CCCCCNC(=O)C(CCc1ccccc1)n1c(=O)c(-c2cc3ccccc3[nH]2)nc2ccccc21 (stereo not given),33%
CCCCNC(=O)C(NC(=O)c1cnc(C)cn1)C(=O)c1ccccc1 (stereo not given),-1.0%
CO[C@@H]1CN(C)C(=O)c2cc(NC(=O)NC3CCCCC3)ccc2OC[C@@H](C)N(CCc2ccccc2)C[C@@H]1C,-1.7%
COc1ccc(C(C(=O)Nc2c(C)cccc2C)n2c(=O)c(-c3ccccc3)nc3ccccc32)cc1 (stereo not given),?
CCOC(=O)N1CCN(C(=O)C[C@@H]2C[C@@]3(C(=O)OC)CCCCC=C3N(Cc3ccc4c(c3)OCO4)C2=O)CC1,0.1%
O=C(Nc1ccc2c(c1)OCCO2)C(C1CC1)n1c(=O)c(-c2cc3ccccc3[nH]2)nc2ccccc21 (stereo not given),15%
COC(=O)[C@@]12C[C@@H](CC(=O)N3CCN(C(=O)c4ccco4)CC3)C(=O)N(Cc3cccc4ccccc34)C1=CCC(C)(C)C2,-1.1%

More compounds:
SMILES	ClpP mod
CC(=O)Nc1cccc(-c2nc3ccccc3n2C(C)C(=O)NC(C)(C)C)c1 (stereo not given)	4.0%
CC(C)(C)NC(=O)C(C1CC1)n1c(-c2ccccc2)nc2ccccc21 (stereo not given)	-20%
CCc1c(-c2ccc(OC)cc2)ncn1Cc1cccc(-c2ccccc2)c1	?
CC1(C(=O)Nc2ccc3c(c2)OCCO3)CN(S(C)(=O)=O)CC(=O)N1CCc1ccccc1F (stereo not given)	-0.5%
CCCCCCCCCc1conc1C(=O)/C=C/c1oc2c(c1C)CCC(C)C2 (stereo not given)	0.9%
COC(=O)[C@@]12C[C@@H](CC(=O)NCc3ccccc3)C(=O)N(Cc3ccccc3)C1=CCC(C)(C)C2	0.5%
O=C(NC1CCCCC1)C(c1ccccc1)n1c(=O)c(-c2ccco2)nc2ccccc21 (stereo not given)	4.1%
Cc1ccc(N2CCN(C3C(=O)Nc4ccccc4-n4nnnc43)CC2)cc1 (stereo not given)	-0.7%
Cc1cccc(C)c1NC(=O)C1(C)CSCC(=O)N1CCc1ccc(O)cc1 (stereo not given)	2.0%
COc1ccccc1S(=O)(=O)N[C@@H]1CC[C@@H](CCn2cc(C3CC3)nn2)O[C@@H]1CO	2.5%
N#Cc1cccc(C=C(C(=O)c2ccccc2)c2ccccc2)c1	-3.2%
COC(=O)C[C@H]1CC[C@H](NC(=O)Cc2ccccc2)[C@@H](CO)O1	2.8%
O=C(Nc1c(-c2ccccc2)[nH][nH]c1=O)c1ccc2c(c1)OCO2	-3.1%
CCOC(=O)CC1(C)Sc2ccccc2N1S(=O)(=O)c1ccc(C)cc1 (stereo not given)	-3.5%
COC(=O)[C@@]12C[C@@H](CC(=O)NCC34CC5CC(CC(C5)C3)C4)C(=O)N(Cc3ccc4c(c3)OCO4)C1=CCC(C)(C)C2	-0.8%
CC(C)NC(=O)C1C(c2ccc(C(F)(F)F)cc2)=Nc2ccccc2N1C(=O)c1ccccc1 (stereo not given)	-8.7%
Cc1cccc(C)c1NC(=O)C(c1ccnc2ccccc12)n1c(=O)c(-c2ccccc2)nc2ccccc21 (stereo not given)	-28%
O=C(C[n+]1cccc(/C=N/O)c1)NC(=O)Nc1ccccc1	2.8%
CCCCCCCCN1CC(Cc2cc3ccccc3c3ccccc23)N(c2ccccc2)c2ccccc2C1=O (stereo not given)	3.4%
COCCCN1C(=O)C(CC(=O)NCc2cccs2)CC(C(=O)N2CCCCCC2)=C1C (stereo not given)	0.3%
O=C(NC1CCCC1)C(C1CC1)n1c(-c2ccnc3ccccc23)nc2ccccc21 (stereo not given)	-3.9%
O=C(C[C@@H]1CC[C@H](NS(=O)(=O)c2ccccc2F)[C@@H](CO)O1)NCCCN1CCOCC1	3.6%
CC(C)c1cc(C(=O)NCc2ccc(F)cc2)c(N)s1	-3.7%
O=C(Nc1ccc2c(c1)OCCO2)C(c1ccc(C(F)(F)F)cc1)n1c(=O)c(-c2cc3ccccc3[nH]2)nc2ccccc21 (stereo not given)	19%
CCC(c1nc2ccccc2[nH]1)n1c(-c2ccc3ccccc3c2)nc2ccccc21 (stereo not given)	4.5%
COc1ccc(NC(=O)C(c2ccc(OC)cc2)n2c(=O)c(-c3ccco3)nc3ccccc32)cc1 (stereo not given)	-4.2%
Nc1c(-c2ccc(F)c(F)c2)nc2ncccn12	-1.6%
COCC(=O)N[C@H]1C=C[C@@H](CC(=O)OC)O[C@@H]1CO	0.1%
COC(=O)[C@]12CCCCC=C1N(Cc1ccc3c(c1)OCO3)C(=O)[C@H](CC(=O)N1CCSCC1)C2	-2.2%
CC1(C(=O)Nc2ccc3c(c2)OCCO3)CN(S(C)(=O)=O)CC(=O)N1CCc1ccccc1 (stereo not given)	-3.6%
CCCNC(=O)C[C@@H]1CC[C@H]2NC[C@H](O)COC[C@@H]2O1	1.3%
COc1ccccc1-n1cc(CN2CCc3onc(-c4ccc(Br)cc4)c3C2=O)nn1	-0.1%
O=C1Nc2ccccc2-n2nnnc2C1N1CCN(c2ccccn2)CC1 (stereo not given)	?
Cc1ccc(S(=O)(=O)N2[C@@H](CO)CO[C@H]2CC(=O)c2cccs2)cc1	-2.2%
CCOC(=O)C1=CC[C@@H](c2cccc(Br)c2)N(S(=O)(=O)c2ccc(F)cc2)[C@H]1c1cccc(Cl)c1	-1.2%
Cc1ccccc1CN1C(=O)CN(S(C)(=O)=O)CC1(C)C(=O)Nc1c(C)cccc1C (stereo not given)	-1.7%
CC(C)NC(=O)C1(C)CN(S(C)(=O)=O)CC(=O)N1Cc1ccco1 (stereo not given)	1.4%
C[C@H](NC(=O)C[C@@H]1CC[C@H]2[C@@H](COC[C@H](O)CN2Cc2ccc(C(F)(F)F)cc2)O1)c1ccccc1	0.6%
COC(=O)C[C@@H]1C=C[C@@H](NS(=O)(=O)c2ccc(OC)cc2)[C@@H](CO)O1	0.2%
